# Assay outcomes (PubChem BioAssay)
# LANA-H2B inh: blocks KSHV LANA binding to histone H2A/H2B; inhibition, % (concentration not given with the values); cell-free LANA-H2A/H2B peptide, fluorescence polarization; AID 2629; 320,000 tested, 0.6% active; in the data active = inhibition mostly above about 10%, no sharp cut-off; inactive = mostly below about 6.7%;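 note: stock transfer was 7.5 nL into about 10 µL; 0% = median of vehicle wells and 100% = median of positive control wells; one replicate is shown; the record names a cut of 25% in any replicate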
# Target sequence (Q9QR71 whole entry, looked up): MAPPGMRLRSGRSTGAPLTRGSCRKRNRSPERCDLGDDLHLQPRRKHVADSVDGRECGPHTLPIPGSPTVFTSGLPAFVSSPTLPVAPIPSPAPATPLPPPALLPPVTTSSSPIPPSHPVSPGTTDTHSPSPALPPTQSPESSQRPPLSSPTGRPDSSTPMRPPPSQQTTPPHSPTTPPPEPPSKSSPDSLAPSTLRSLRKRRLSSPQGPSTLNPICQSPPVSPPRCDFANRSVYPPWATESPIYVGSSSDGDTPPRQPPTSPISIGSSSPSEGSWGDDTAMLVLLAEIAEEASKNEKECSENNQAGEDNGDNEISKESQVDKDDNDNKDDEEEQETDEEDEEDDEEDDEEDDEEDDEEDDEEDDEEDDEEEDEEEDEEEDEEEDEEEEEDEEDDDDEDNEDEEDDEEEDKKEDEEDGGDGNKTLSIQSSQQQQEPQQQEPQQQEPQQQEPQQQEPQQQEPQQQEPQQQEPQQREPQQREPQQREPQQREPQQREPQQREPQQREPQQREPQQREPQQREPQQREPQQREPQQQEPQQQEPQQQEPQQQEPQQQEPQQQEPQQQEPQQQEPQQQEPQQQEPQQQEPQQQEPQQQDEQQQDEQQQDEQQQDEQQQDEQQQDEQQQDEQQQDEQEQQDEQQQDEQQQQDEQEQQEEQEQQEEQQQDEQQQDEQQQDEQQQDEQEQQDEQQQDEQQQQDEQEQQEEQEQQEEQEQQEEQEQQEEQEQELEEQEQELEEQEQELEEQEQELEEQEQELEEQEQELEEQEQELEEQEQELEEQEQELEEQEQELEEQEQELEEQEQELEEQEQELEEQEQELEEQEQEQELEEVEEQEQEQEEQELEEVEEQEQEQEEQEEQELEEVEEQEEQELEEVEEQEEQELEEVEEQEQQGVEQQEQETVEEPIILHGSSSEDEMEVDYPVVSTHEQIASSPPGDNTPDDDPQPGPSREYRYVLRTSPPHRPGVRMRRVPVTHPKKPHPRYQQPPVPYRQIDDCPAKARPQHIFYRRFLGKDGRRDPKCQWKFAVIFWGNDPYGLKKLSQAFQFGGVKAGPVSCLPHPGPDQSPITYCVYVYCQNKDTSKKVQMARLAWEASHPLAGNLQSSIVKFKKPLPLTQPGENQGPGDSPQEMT
# RanGTP-Impb inh: inhibitors of RanGTP-importin-beta interaction, primary screen, biochemical, FRET, CFP-Ran, YFP-importin-beta, homogeneous | inhibition, % (concentration not given with the values) | 300,000 tested, 1.1% active | AID 2216 | cell-free CFP-Ran/YFP-importin-beta FRET ratio;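 active = most replicates above 15%; inconclusive = exactly half above 15%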;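 note: 0% = DMSO wells and 100% = Ran loaded with GDP instead of GTP; wells of about 40 µL received 100 nL stock; the first replicate is given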
# UCH37 DUB inh: inhibitors of human deubiquitinating enzyme UCH37 | Q9Y5K5 | purified proteasome/UCH37, Ub-AMC cleavage fluorescence | inhibition, % (no concentration beside the values) | 330,000 tested, 0.33% active | AID 588478;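 active = mean of two replicates above 20%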;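 note: 0% = compound-free wells with enzyme and 100% = wells lacking proteasome; stock transfer was 100 nL into about 20 µL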
#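 system = Proteasome-associated human UCH37 deubiquitinase | amount = 0.15 nM proteasome as dispensed | medium = pH 7.4 Tris-HCl (50 mM) with ovalbumin, ATP-MgCl2, DTT | incubation = 30 min preincubation with enzyme, 25 min cleavage at room temperature | detection = AMC fluorescence 355/460 nm | read-out basis = percent inhibition | controls = no-proteasome and no-compound wells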
# A1 inh: inhibitors of the anti-apoptotic protein A1, read as caspase activation | MEF A1-2A-BIM cells, Caspase-Glo 3/7 luminescence, 3 h; percent of clofoctol response, vehicle zero | caspase activation, % (no concentration beside the values) | 330,000 tested, 0.066% active;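 active = over half of replicate activation scores above 10%, or exactly half above 10 with the replicate mean above 10; inconclusive = replicate mean below 10 yet half the replicates above 10; inactive = over half of replicates below 10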;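 note: wells of about 30 µL received 50 nL stock; many hits fall short of the cut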
# Calb FLC: affects C. albicans growth with fluconazole | AID 1979 | 300,000 tested, 0.57% active | C. albicans CaCi-2 (fluconazole-resistant clinical isolate) + fluconazole, Alamar Blue growth, 48 h | growth inhibition, % (concentration not given with the values);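 active = most replicates above 75%; inconclusive = exactly half above 75%; inactive = most below 75%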;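 note: all wells also contain fluconazole at 8 µg/ml as a sub-toxic cotreatment; 0% = median of DMSO wells and 100% = median of geldanamycin control wells; wells of about 8 µL received 7.5 nL stock; the first replicate is given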
# B2AR ag: activates human beta-2 adrenergic receptor causing internalization; P07550; AID 504454; response, % (concentration not given with the values); Am2.2-beta2AR cells, FAP receptor internalization, flow cytometry; reference of the scale not given here; 340,000 tested, 0.43% active;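 active = response above a set limit, near 3 SD of response in nonfluorescent compounds, cut at about 42% in these data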;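 note: stock transfer was 100 nL into about 11 µL; a reference agonist was the positive control; negative values mostly stem from fluorescent compounds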
# T cruzi repl: T. cruzi replication inhibition. T. cruzi beta-gal in NIH3T3, luminescence, 90 h. inhibition, % (concentration not given with the values). 300,000 tested, 1.4% active. AID 1885;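 active = mean inhibition across valid replicates above about 55%, limit read from the data; inconclusive = mean below that limit but half or more replicates reach it; inactive = mean below it, under half of replicates reach it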;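 note: signal also drops with host cell toxicity which is not excluded here; 0% = plate median of DMSO wells and 100% = zero luminescence signal; higher percent means less beta-gal luminescence so fewer parasites; stock transfer was 50 nL into about 50 µL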
# Beta apoptosis: beta cell apoptosis inhibition | INS-1E cytokine-induced death, ATP luminescence, 48 h; percent of positive-control rescue, neutral wells zero | protection from apoptosis, % (no concentration beside the values) | 300,000 tested, 0.8% active | AID 435005;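 active = all replicates at 75% or more, or half of them and the mean; inconclusive = half reach 75% but not the mean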;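 note: 0% = cytokine-treated negative control wells and 100% = positive control rescue; higher means more ATP so stronger rescue from cytokine killing; wells of about 40 µL received 100 nL stock; the first replicate is given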
# * marks the source's active call; other numbers are inactive results; ? = inconclusive; / = no result given.
SMILES,LANA-H2B inh,RanGTP-Impb inh,UCH37 DUB inh,A1 inh,Calb FLC,B2AR ag,T cruzi repl,Beta apoptosis
Cn1c(=N)n(CC(=O)c2ccccc2)c2ccccc21,1.6,0.6,3.0,-7.1,0,3,-10,/
C/C(=N\NC(=O)c1ccccc1F)c1ccc(C#N)cc1,-1.6,-1.4,/,1.3,-16,-4,-7,2
O=[N+]([O-])c1ccc(Sc2ncccn2)c([N+](=O)[O-])c1,0.4,-0.6,7.5,0.8,65,-1,27,-6
CN(C)CCNC(=O)/C(=C/c1ccc(-c2cccc(Cl)c2)o1)NC(=O)c1ccccc1,-0.3,1.0,-3.4,0.0,-12,2,21,16
Cc1ccc(Cc2c(C)nc3nc(SCC(=O)NCCCN4CCOCC4)nn3c2C)cc1,-0.3,-0.2,2.4,-0.5,-2,24,-6,-1
O=C1CC(c2ccccc2)CC(O)=C1C=Nc1cccc(Cl)c1 (stereo not given),3.1,4.1,2.6,0.3,19,-7,-16,-21
CC1CCN(C(=O)CCNC(=O)Cn2cnc3sc4c(c3c2=O)CCCC4)CC1,-0.6,2.4,3.4,1.4,11,-22,0,0
Cc1ccc(C)c(NC(=O)COC(=O)Cc2ccsc2)c1,-6.1,4.5,2.3,-0.4,-3,8,-8,-4
C=CCSC1=C(C#N)C(c2ccccc2C)CC(=O)N1 (stereo not given),-3.0,-4.0,3.0,0.9,-2,-5,-1,-7
CCN(CC)S(=O)(=O)c1ccc(N2CCCC2)c(NC(=O)Cc2cc(OC)c(OC)c(OC)c2)c1,3.7,4.8,2.6,0.4,-2,32,11,2
COc1cccc(CSc2nc3ccccc3cc2C=O)c1,8.4,-1.6,1.8,1.1,-2,30,2,10
CCOC(=O)c1c2c(n(C)c1COC)C(=O)C(=O)c1ccc(Br)cc1-2,-2.4,-3.4,/,1.2,-36,/,-14,105*
Cn1cnnc1SCC(=O)NCCc1ccc(Cl)cc1Cl,5.3,2.5,2.9,-0.2,-18,0,-22,-8
CCOc1ccc(/C=N/Nc2nncc(-c3ccccc3)n2)cc1OC,-0.5,2.7,/,0.6,23,21,-1,11
O=C1CC(N2CCN(c3ccc(F)cc3)CC2)C(=O)N1c1ccc2c(c1)OCO2 (stereo not given),2.1,2.2,0.7,0.5,4,4,-11,-1
CCN(CC)S(=O)(=O)c1ccc(Cl)c(C(=O)Oc2cccnc2)c1,-0.5,3.1,5.4,-0.2,-4,5,-4,/
CCOC(=O)N/N=C(\C)c1ccc(Oc2ncccn2)cc1,-2.9,1.6,/,-0.5,5,-6,-14,-4
CCOC(=O)C(C(=O)OCC)N(C#N)c1nc(C)cc(C)n1,-3.8,-0.9,1.2,0.4,-2,4,-20,2
CC(NC(=O)CSCc1ccc(Br)cc1)c1ccccc1 (stereo not given),1.9,-0.9,4.7,-0.1,-3,-1,20,-1
CCO[C@H]1OC(C(=O)NC2CC2)=C[C@@H](C2CC2)[C@@H]1CCCO,-4.4,-1.5,3.9,0.4,-4,-2,-34,-3
CN(C)C(CNc1nnnn1-c1ccccc1)c1ccco1 (stereo not given),-0.9,-6.5,0.5,0.5,-13,-9,-12,3
CCN(CC)CCNC(=O)CCc1nn(C)c(=O)c2ccccc12,-4.2,2.5,-1.5,0.4,-1,-2,2,2
Nc1n[nH]c(-c2ccccc2)c1-c1ccccc1,-1.5,-6.9,4.3,0.2,-1,2,-5,-6
CC(NS(=O)(=O)c1ccc(Cl)cc1)C(c1cccs1)N1CCN(C)CC1 (stereo not given),0.7,4.0,1.2,-0.4,-8,-3,7,-6
CS(=O)(=O)N(CC(=O)Nc1ccc(S(=O)(=O)N2CCCC2)cc1)c1cccc(F)c1,-0.4,-1.4,0.7,-0.3,-5,-6,-4,5

# Additional entries follow:
SMILES,LANA-H2B inh,RanGTP-Impb inh,UCH37 DUB inh,A1 inh,Calb FLC,B2AR ag,T cruzi repl,Beta apoptosis
O=C(Nc1cccc(-c2cccc(F)c2)c1)C1CCN(C2CCC2)CC1,/,6.4,3.6,/,1,7,11,/
C=CCn1c(SCC(=O)NCCCC(=O)OCC)nc2scc(-c3ccco3)c2c1=O,-5.2,-0.4,-0.2,0.4,2,-1,10,-3
CCOC(=O)c1cn(-c2c(C)n(C)n(-c3ccccc3)c2=O)c2c(F)c(F)c(F)cc2c1=O,-5.0,8.7,1.9,-0.5,5,-1,-6,-3
COc1ccc(NCc2ccsc2)cc1,3.4,-1.3,3.8,-0.3,-45,-3,0,-4
COc1cc(NC(=O)c2nccnc2C(=O)O)cc(OC)c1,1.3,-3.9,6.2,-0.1,1,0,-5,-3
NC(=S)NNC(=O)/C(=C/c1ccc(Br)cc1)NC(=O)c1ccccc1,1.1,-0.4,2.4,3.2,7,1,4,1
O=C(CSc1n[nH]c(=O)[nH]c1=O)c1ccc(Cl)cc1Cl,-5.1,-1.5,0.2,0.3,0,-10,-8,-3
O=C(CCN1C(=O)c2ccccc2C1=O)NCc1ccc(F)cc1,2.0,-2.8,-0.9,2.4,4,-11,0,/
C/C1=C\CCC2C(/C=C(\C)CC1)OC(=O)C2CN1CCCCC1 (stereo not given),0.2,0.5,/,1.9,-8,-6,-19,-12
COc1ccc(C(CC(=O)Nc2ccccn2)N2Cc3ccccc3C2=O)cc1OC (stereo not given),5.5,-3.2,2.4,0.4,2,-17,5,-1
CCn1nnnc1NCc1ccc(SC)cc1,-5.1,-0.1,0.6,0.6,-2,-3,5,/
Cc1c(-c2cc(C(=O)O)on2)cnn1C,2.0,1.0,4.2,0.2,-12,11,-15,-5
COC(=O)CCN(C)CCC(=O)OC,1.7,1.9,1.5,0.8,-2,-3,-18,-5
O=c1cc(Nc2ccc3c(c2)OCCO3)[nH]c(=O)n1Cc1ccc(F)cc1,3.6,-2.6,7.1,1.8,-10,-3,-11,-4
COc1ccc(C(=O)NC2CCCc3c2cnn3-c2ccccc2F)cc1OC (stereo not given),3.1,3.5,2.1,-0.3,16,-5,-21,20
Cc1cc(-c2ccccc2)nc2cc(C(=O)OC(C)C)nn12,-2.5,3.4,-70,-0.2,0,5,-3,-2
Cc1ccc(C)c2[nH]c(=O)c(CCNC(=O)CC(C)C)cc12,1.6,-0.9,-6.9,0.5,12,16,-4,/
O=C(Nc1ccc(-c2ccc(N3CCCCC3)nn2)cc1)c1ccco1,-22,1.5,-4.3,0.2,25,30,-4,11
COc1ccc2oc(C(=O)OCC(=O)Nc3cccc(S(=O)(=O)N4CCOCC4)c3)c(C)c2c1,-15,1.3,-31,-0.8,-5,0,9,-1
O=C(COc1ccccc1)Nc1nc(-c2cccs2)cs1,-1.0,6.5,-0.8,-0.3,5,-2,7,-6
Cc1ccc(C2SCC(C(=O)O)N2C(=O)c2ccc(F)cc2)cc1 (stereo not given),1.2,2.2,0.6,0.0,0,6,-10,-1
Cc1nn2cnc3sc4c(c3c2nc1=O)CCCC4,-0.3,2.5,0.4,0.5,-3,-2,-5,4
Cc1csc(NC(=O)C2CCCN2C(=O)Oc2ccccc2)n1 (stereo not given),2.9,-1.7,0.0,-0.4,-17,-10,-10,4
Cc1nc(-c2ccc(S(=O)(=O)Nc3ccc(Br)cc3Cl)s2)cs1,-3.5,2.2,4.3,0.8,17,6,-12,/
O=C(c1ccco1)N1CCN(Cc2nc(Cc3ccccc3)no2)CC1,-6.2,-1.9,1.3,0.4,-5,6,1,-2

# The list goes on.
SMILES,LANA-H2B inh,RanGTP-Impb inh,UCH37 DUB inh,A1 inh,Calb FLC,B2AR ag,T cruzi repl,Beta apoptosis
O=C(Nc1nnc(SCCC2OCCO2)s1)C1CC(=O)N(c2ccccc2)C1 (stereo not given),0.4,4.5,5.3,0.5,4,2,-17,0
COc1ccc(S(=O)(=O)NNC(N)=S)cc1,4.5,?,-0.7,0.1,-2,-2,1,0
COc1ccc(NC(=O)NC(C(F)(F)F)C(F)(F)F)cc1,-2.6,0.4,2.9,0.9,-2,-11,-6,1
Cc1nnsc1S(=O)(=O)Cc1ccccc1C(F)(F)F,0.1,4.1,0.3,-0.2,-5,-1,-17,4
CCc1c(-c2ccccc2)nc(N)c(C#N)c1-c1cccs1,4.9,-0.6,-6.1,0.0,16,35,9,-8
O=C(CN1CCc2cc3c(cc2C1)OCCCO3)Nc1ccc(S(=O)(=O)N2CCCC2)cc1,0.5,5.8,2.8,-0.2,-20,2,12,4
Cc1ccc(OC(=O)c2ccc(Cl)c([N+](=O)[O-])c2)cn1,0.3,-0.6,3.4,0.7,12,5,-17,0
CCCCn1ccnc1C(=O)c1cccc(S(=O)(=O)N2CC(C)CC(C)C2)c1 (stereo not given),/,-3.5,2.5,/,2,-8,11,/
CCN(C[C@H]1N[C@@](C)(C(=O)OC)[C@H]2C(=O)N(C)C(=O)[C@@H]12)S(=O)(=O)c1ccc(-c2ccccc2)cc1,-0.4,/,2.8,1.2,/,-2,/,-6
CCSC1=NCCN1C(=O)c1c(-c2ccccc2Cl)noc1C,2.3,0.7,1.4,-0.8,43,-3,-4,-9
CC1CCN(c2nc(/C=C/c3ccccc3)nc3ccccc23)CC1,/,13,-2.5,-0.7,-7,-2,40,5
CCOc1ccc(NC(C)=O)cc1,-2.8,1.3,6.7,0.0,/,-6,-10,-1
Cc1ccccc1C(=O)Nc1c2c(nc3ccccc13)CCCC2,-0.3,1.3,4.4,0.7,-23,2,1,-3
OC(COc1ccc2ccccc2c1)Cn1cncn1 (stereo not given),0.2,-4.8,1.9,-0.2,0,10,-4,-4
COc1ccccc1/C=C/C=N/NC(=O)c1ccco1,0.1,3.5,/,-0.4,15,-6,-22,-3
Cc1ccc(C(=O)N/N=C/c2sc(=O)n(Cc3cccc(C(=O)O)c3)c2Cl)cc1,0.7,-1.2,/,0.1,-21,-6,7,-2
CCOc1cc(/C=C2\SC(=S)N(NS(=O)(=O)c3ccc(C)cc3)C2=O)ccc1O,-9.2,-6.7,14,-0.9,66,4,-6,-4
COCCCNS(=O)(=O)c1ccc(C)cc1,-1.9,0.0,3.1,0.4,?,4,-23,-5
O=[N+]([O-])c1ccc(N2CCN(Cc3ccccc3)CC2)c(S(=O)(=O)N2CCOCC2)c1,2.3,5.4,5.0,?,2,-4,17,-2
Cc1cc(=O)n2nc(N3CCCC(C(=O)NC4CCCCC4C)C3)sc2n1 (stereo not given),4.6,-1.4,3.1,-1.0,-2,1,1,-3
CCOc1ccc(NC(=O)n2ncc3c(C)cccc32)cc1,2.6,8.3,0.3,-5.8,-4,29,5,3
COc1ccc(CN2C(=O)CS/C2=N/N=C/c2ccccc2)cc1,3.6,2.0,/,-0.6,1,3,-27,8
Cc1ccc(-n2ncc3c2CC(C)(C)CC3NC(=O)C2CCOCC2)cc1 (stereo not given),3.1,-0.4,-0.5,-0.4,13,1,-5,-6
COc1ccccc1-n1c(SCC(=O)O)nc2c(sc(=S)n2-c2ccc(C)c(C)c2)c1=O,0.8,-2.1,9.5,-0.2,4,1,-9,2
CCOC(=O)C1CCCN(C(c2ccccn2)c2c(C)[nH]c3ccccc23)C1 (stereo not given),0.4,-14,3.6,0.3,8,4,-20,-8
NNc1nc2c(-c3ccc(F)cc3)nnn2c2ccccc12,-0.7,21*,-76,-3.4,6,3,3,5
